Screening results as filed in PubChem.
VDR inh = Inhibitors of the vitamin D receptor (VDR): qHTS; actives 0.93% (n = 400,000); VDR-SRC2-3 peptide fluorescence polarization, 2 h; Vitamin D3 receptor (Homo sapiens), P11473; AID 504847, 2011; Potency, µM, for inactives: max response, negative = inhibition, most hits filed as inhibitors; active = well fitted inhibition curve with a large enough effect; inconclusive = small, poorly fitted or top-dose-only effect, or another doubt; inactive = no such curve, though single readings can be large or run the other way; also: series mostly up to about 120 µM
Target sequence (P11473 whole entry, looked up): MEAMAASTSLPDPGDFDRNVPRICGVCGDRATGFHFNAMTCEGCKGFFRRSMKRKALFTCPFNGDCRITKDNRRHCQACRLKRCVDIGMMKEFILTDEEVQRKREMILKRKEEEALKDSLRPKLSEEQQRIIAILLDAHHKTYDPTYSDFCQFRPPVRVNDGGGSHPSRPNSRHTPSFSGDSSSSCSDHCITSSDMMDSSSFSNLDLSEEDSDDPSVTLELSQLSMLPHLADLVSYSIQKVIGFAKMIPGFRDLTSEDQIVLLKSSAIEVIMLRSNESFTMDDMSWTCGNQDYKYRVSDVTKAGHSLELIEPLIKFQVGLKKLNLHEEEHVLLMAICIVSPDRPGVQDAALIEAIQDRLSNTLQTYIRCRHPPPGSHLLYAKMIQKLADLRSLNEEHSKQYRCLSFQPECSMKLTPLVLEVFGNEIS
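Signal is fluorescence polarization, reporting how far test compounds block the interaction of VDR with the SRC2-3 coregulator peptide after a 2 h room-temperature incubation.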
Numbers without * were called inactive; ? = inconclusive; & = joins results of further samples. % is scaled to controls: 0 for no effect and ±100 for the full control effect; potency is read from the fitted curve at half-maximal effect. These rows are one share of the data (hit frequency here may not be typical).

VDR inh,SMILES
-10.0%,COCCn1c(=O)c(-c2ccccc2)nc2cnc(Oc3ccccc3)nc21
-12.0%,CC1CCN(c2nc3ccccn3c(=O)c2C=O)CC1
?,Cn1ncc(S(=O)(=O)Cc2ccccc2)c(Br)c1=O
-25.7%,CC(C)[C@H](N)C(=O)NC[C@H]1O[C@@H](n2cnc3c(N)ncnc32)[C@H](O)[C@@H]1O
-10.2%,COc1cc(NC(=O)Cn2cnc(S(=O)(=O)N3CCc4ccccc43)c2)cc(OC)c1OC
20.2%,C/C=C/c1ccc(OCC(=O)OCC(=O)NC2CC2)c(OC)c1
-5.0%,Cc1ccc(NC(=S)Nc2cc(-c3ccccc3)[nH]n2)cc1Cl
-8.2%,O=C(CC1C(=O)NCCN1Cc1cccc(Oc2ccccc2)c1)NCC1CCOCC1 (stereo unspecified)
-0.6%,CCCCCC(=O)Nc1cccc(C2=NOC3(C2)C[C@H](C(N)=O)N(C(=O)c2ccccc2C(=O)c2ccccc2)C3)c1 (stereo partly specified)
3.9%,CC(=O)N1CCc2c(sc(NC(=O)c3ccc4c(c3)OCCO4)c2C#N)C1
-7.2%,CCCC(=O)NC(c1ccc(OC)c(OC)c1)c1cc(Cl)c2cccnc2c1O (stereo unspecified)
-4.8%,Cc1ccc(S(=O)(=O)c2nnn3c2nc(N2CCCCC2)c2sccc23)cc1
-4.6%,CCN(CC)C(=O)Cn1cnc([N+](=O)[O-])n1
5.9%,CCc1ccc(C(C)NC(=O)c2ncn[nH]2)cc1 (stereo unspecified)
6.4%,O=C(C[n+]1ccccc1)N1c2ccccc2Sc2ccccc21
2.7%,Cc1ccc(Cl)cc1N1CCN(S(=O)(=O)c2ccc3c(c2)CC(C)N3C(=O)C2CCC2)CC1 (stereo unspecified)
0.7%,Cc1ccc(-c2noc(CN(C(=O)CCN3C(=O)c4ccccc4C3=O)C(C)C)n2)cc1
-7.3%,O=C(CSc1ccc(-c2cccs2)nn1)Nc1ccccc1F
11.2%,O=C1NCCCC1C(=O)N/N=C/c1cccc(Cl)c1 (stereo unspecified)
-7.1%,O=C(CN1C(=O)/C(=C\c2ccc(F)cc2)Oc2ccccc21)N1CCN(c2ccccn2)CC1
12.8%,Cc1nc(SCC(=O)N2CCN(C(=O)c3ccco3)CC2)c2c(C)c(C)sc2n1
7.5%,COc1ccc(-c2nnc(NC(=O)c3c(OC)cccc3OC)s2)cc1
10.3%,Cc1cc(C)cc(NC(=O)CSc2nncn2-c2ccccn2)c1
11.7%,COc1ccc(CNC(=O)C[C@H]2C[C@H](C(=O)N3CCOCC3)[C@@]3(CCC4CCCC4)c4[nH]c5cc(CCC(=O)N(C)C)ccc5c4CCN3C2=O)cc1OC
2.5%,COc1ccc(CNC(=O)C2CCCN(S(=O)(=O)c3ccc(Br)s3)C2)cc1 (stereo unspecified)

Ordered by length of the SMILES (low to high): some entries from above
VDR inh,SMILES
-4.6%,CCN(CC)C(=O)Cn1cnc([N+](=O)[O-])n1
20.2%,C/C=C/c1ccc(OCC(=O)OCC(=O)NC2CC2)c(OC)c1
-7.2%,CCCC(=O)NC(c1ccc(OC)c(OC)c1)c1cc(Cl)c2cccnc2c1O (stereo unspecified)
0.7%,Cc1ccc(-c2noc(CN(C(=O)CCN3C(=O)c4ccccc4C3=O)C(C)C)n2)cc1
-7.1%,O=C(CN1C(=O)/C(=C\c2ccc(F)cc2)Oc2ccccc21)N1CCN(c2ccccn2)CC1
2.7%,Cc1ccc(Cl)cc1N1CCN(S(=O)(=O)c2ccc3c(c2)CC(C)N3C(=O)C2CCC2)CC1 (stereo unspecified)
-25.7%,CC(C)[C@H](N)C(=O)NC[C@H]1O[C@@H](n2cnc3c(N)ncnc32)[C@H](O)[C@@H]1O

(more compounds)
VDR inh,SMILES
-3.9%,Cn1c(CN2CCCC2)nc2cc(NC(=O)COc3ccc([N+](=O)[O-])cc3)ccc21
-24.6%,O=C1[C@@H](Oc2ccccc2)[C@@H](c2cccnc2)N1c1ccccc1
-13.3%,CCN(C(=O)CSc1nc2ccccc2o1)c1c(N)n(Cc2ccccc2)c(=O)[nH]c1=O
-4.7%,Cc1ccccc1-c1ccc(C(=O)O)s1
2.8%,COCCn1c(=O)c(-c2ccc(OC)cc2)nc2cnc(OC)nc21
11.8%,COc1ccc(NC(=O)CCn2cnc3onc(-c4ccc(F)cc4)c3c2=O)cc1OC
-8.7%,Cc1ccc(OCCOC(=O)CCc2nc3ccccc3c(=O)[nH]2)cc1
1.4%,CCN(C(=O)CSc1nnc(NC2CCCCC2)s1)C1CCS(=O)(=O)C1 (stereo unspecified)
-14.6%,COc1ccc(C(=O)N2CCNC(=O)C2)cc1S(=O)(=O)Nc1ccc(Br)cc1
-17.9%,Cc1ccc(C(=O)NCC(=O)OCc2cccc(Br)c2)cc1
-14.9%,Cc1cccc(NC(=O)c2ccc(S(=O)(=O)N3CCCCC3)cc2)n1
-5.1%,O=C(NCc1ccc(F)cc1)c1cnccn1
0.5%,CN1N=C(C(=O)N2CCc3c([nH]c4ccccc34)C2c2c(F)cccc2Cl)CCC1=O (stereo unspecified)
-0.7%,Cn1c(=O)oc2cc(S(=O)(=O)NC3CCCCC3)ccc21
-8.6%,N/C(=N\OC(=O)c1ccco1)c1cccc([N+](=O)[O-])c1
-3.4%&-6.6%,CCCCC/C=C\C/C=C\C/C=C\C=C\C(=O)CCCC(=O)O
12.2%,O=C(/C=C\c1ccc2c(c1)OCO2)NC1CC(=O)N(c2ccccc2)C1 (stereo unspecified)
2.9%,CCOC(=O)c1sc(NC(=O)C(CC)Sc2nccn2C)nc1C (stereo unspecified)
4.1%,CCCc1nc(SCC(=O)N2c3ccccc3CC2C)c2c(C)c(C)sc2n1 (stereo unspecified)
-12.7%,O=C(NCCC1=CCCCC1)c1ccc2c(=O)n3c(nc2c1)CCCCC3
-1.6%,CCN(CC)S(=O)(=O)c1ccc2oc(C(=O)NCc3ccc(F)cc3)c(C)c2c1
-15.5%,CCNC(=O)C/C(C)=N/NC(=O)C(=O)Nc1ccc(CC)cc1
2.0%,Cc1ccc(/C=C/C(=O)O)cc1S(=O)(=O)N1CCc2ccccc2C1
0.1%,CS(=O)(=O)c1ccc2nc(NC(=O)c3ccco3)sc2c1
9.9%,CCCSc1nsc(NC(=O)CC)n1
0.0%,CN1CCN(c2nnc(-c3ccc(F)cc3)c3ccccc23)CC1
19.5%,COc1cccc(-c2cn3c(n2)sc2cc(C(=O)NCc4cccs4)ccc23)c1
-11.2%,Cc1ccc(-n2nnnc2SC(C)C(=O)Nc2ccccc2-c2ccccc2)cc1 (stereo unspecified)
1.4%,CNC(=O)c1ccccc1NC(=O)c1ccco1
2.8%,COc1ccccc1NC(=O)C(Cc1ccccc1)NS(=O)(=O)c1ccc2c(c1)c(=O)n(C)c(=O)n2C (stereo unspecified)
31.6µM*,COc1cccc(-n2nc(C#N)c(Cl)cc2=O)c1
-4.5%,COc1ccc(C(=O)C(C)OC(=O)c2sc(C)nc2C)cc1 (stereo unspecified)
7.4%,CCC(C)NC(=O)c1c(C)oc2ncn(CC(C)C)c(=O)c12 (stereo unspecified)
7.0%,COc1ccc(S(=O)(=O)N(C)CC(=O)N2CCCCC2)cc1Cl
-14.2%,O=C(O)c1sccc1OCc1ccccc1
?,CCOC(=O)C1=C(C)n2c(s/c(=C/c3cccc([N+](=O)[O-])c3)c2=O)=NC1c1ccc(O)c(OC)c1 (stereo unspecified)
-7.1%,O=C(CSc1nnc(Cn2nnc3ccccc32)o1)N(Cc1ccc(Cl)cc1)c1ccccc1
-3.7%,COC(=O)Cc1cccc2c(=O)c3ccccc3oc12
-1.8%,CCCCc1ccc(NC(=O)CSc2nnc(CNC(=O)c3ccco3)o2)cc1
5.0%,COc1ccc(S(=O)(=O)N2CCC(C(=O)NCCCn3ccnc3)CC2)cc1C
7.5%,Cc1ccccc1NC(=O)Nc1nnc(Cc2ccc([N+](=O)[O-])cc2)s1
9.9%,Cc1ccc(C)c(CNC(=O)c2cc3ccccn3n2)c1
13.2%,Cc1cc(=O)[nH]c(SCC(=O)NCCOc2ccccc2)n1
?,CCOc1cc(C)ccc1OCc1nnc(SCC(=O)c2cccc([N+](=O)[O-])c2)n1C
-9.7%&11.9%,COc1cc(NC(C)CCCN)c2ncccc2c1 (stereo unspecified)
-6.8%&11.9%,Cc1ccccc1C1CC(=O)Oc2cc(O)ccc21 (stereo unspecified)
0.6%,O=C(OCCN=C1NS(=O)(=O)c2ccccc21)c1ccncc1
-24.6%,Cc1c(NC(=S)NC(=O)c2ccc(COc3ccccc3)cc2)cccc1C(=O)O
-12.4%,COCCCNC(=S)NNC(=O)c1cc(-c2ccncc2)nc2ccccc12
7.6%,Cc1cc(N2C(=O)C(O)=C(C(=O)c3ccco3)C2c2cccc(O)c2)no1 (stereo unspecified)

Additional results
VDR inh,SMILES
-12.5%,COc1ccc(CNCC(O)(c2ccccc2)c2ccc(F)cc2)cc1OC (stereo unspecified)
-0.1%,CC1(c2ccc([N+](=O)[O-])cc2)NC(=O)N(CC(=O)c2ccc3c(c2)OCO3)C1=O (stereo unspecified)
-5.7%,Cc1ccc(NC(=O)c2cccc3ccccc23)cc1
0.7%,CS(=O)(=O)N1CCC[C@@]2(CCN(c3ccccn3)C2)C1
-16.1%,Cc1cnc(C(=O)OCC(=O)Nc2ccccc2-c2ccccc2)cn1
5.8%,O=[N+]([O-])c1ccccc1N=Nc1ccc(O)cc1
-4.2%,CCN(CC)CCn1c2c(c(SCC(=O)Nc3ccc4c(c3)OCO4)nc1=O)CCC2
5.6%,O=C1N(c2ccccc2)C(=Nc2ccccc2)SC12CC2
-2.2%,CC1Cc2ccccc2N1C(=O)CSc1nnc(Cc2ccccc2)n1CCc1ccccc1 (stereo unspecified)
10.3%,CCCc1noc(-c2ccc(NCc3ccccc3OC)c([N+](=O)[O-])c2)n1
5.7%,O=C(Cc1ccccc1)NC1CCN(S(=O)(=O)c2ccc(C(=O)O)cc2)CC1
-0.1%,COc1ccc(CCNC(=O)c2cc(-c3ccc(Cl)c(Cl)c3)oc2C)cc1
-3.5%,Cc1c(OC(C)C(=O)NCC2CCC(C(=O)O)CC2)ccc2c1oc(=O)c1ccccc12 (stereo unspecified)
5.4%,Cc1cc(C)c2c(=O)[nH]n(C3CCCCCC3)c2n1
?,CC(=O)OC[C@H]1O[C@@H](Sc2cccc3cccnc23)[C@H](OC(C)=O)[C@@H](OC(C)=O)[C@H]1OC(C)=O
-7.5%,CC(O)[C@H]1CNC(=O)C(=O)N1CC1(c2ccccc2)CC1 (stereo partly specified)
15.5%,NCC(O)(c1ccc(Cl)cc1)c1ccc(Cl)cc1
-3.1%,Nc1c(-c2ccccc2)c(CN2CCOCC2)nn1-c1ccccc1
-28.2%,CCOc1ccc(Br)cc1S(=O)(=O)Nc1cccc(S(=O)(=O)Nc2ccccc2C(=O)O)c1
3.8%,CN(C)CC(C)(C)CNS(=O)(=O)c1cccc2nsnc12
3.8%,CC(C)(O)[C@H](O)COc1c2occc2cc2ccc(=O)oc12
2.0%,CC(=O)c1c(C(C)=O)c(C)n(NC(=O)c2ccncc2)c1C
-15.5%,COc1ccc(C#Cc2ccc3c(=O)c4ccccc4n(C)c3c2)cc1
-11.0%,COc1cc(C(=O)NCCCNc2ccc([N+](=O)[O-])cc2)cc(OC)c1OC
-5.4%&-1.1%,CN1CCN(c2nc(-c3cccnc3)nc3ccccc23)CC1

Structures above shown as hits in VDR inh:
VDR inh,SMILES
31.6µM*,COc1cccc(-n2nc(C#N)c(Cl)cc2=O)c1

Next part.
VDR inh,SMILES
?,O=C1C=C(N(CCO)Cc2ccccc2)c2ccccc2C1=O
-17.5%,Cc1ccc(S(=O)(=O)NNC(=O)/C=C/c2cccc(F)c2)cc1
-17.2%,COc1ccc(OC)c(NC(=O)CSc2nc(-c3ccccc3)cc(=O)[nH]2)c1
12.2%,CC1CCCCN1C(=O)CSc1nnc(-c2c[nH]c3ccccc23)o1 (stereo unspecified)
-12.2%,COc1ccc(S(=O)(=O)NCCCO)cc1-c1nnc2c3ccccc3c(C)nn12
-5.1%,COc1ccc(OC)c(NC(=O)CSc2nnnn2C2CCCC2)c1
11.5%,O=c1c2c(-c3cccs3)csc2ncn1-n1cccc1
12.8%,Cc1nc(-c2cccc(NC(=O)c3cccs3)c2)cs1
-13.9%,O=C(NCc1ccco1)C1CCN(S(=O)(=O)N2CCOCC2)CC1
3.5%,CCC1COCCS(=O)(=O)N1Cc1ccccc1F (stereo unspecified)
-1.6%,OC1c2ccccc2N=C2CCCN21 (stereo unspecified)
-5.3%,O=C1C[C@@H]2c3c(cccc3CN1Cc1ccc(Cl)cc1)C[C@@H](O)[C@H]2O
6.6%,Cc1cn2c(-c3cccnc3)nnc2s1
-8.6%,Cc1cccc(Cn2c(CN3CCCC(C)C3)nc3c2c(=O)n(C)c(=O)n3C)c1 (stereo unspecified)
21.8%&-0.4%,CCCCNS(=O)(=O)c1ccc2nc(-c3cccnc3)cc(C(=O)NCCOC)c2c1
-16.2%,CCN(CC)C(=O)C1CCN(S(=O)(=O)c2ccc(-n3cnnn3)cc2)CC1
20.4%,Cc1ccc(-n2nc(C(=O)c3ccccc3)n3c(=O)cc(-c4ccccc4)nc23)cc1
2.2%,CCOC(=O)Cn1c(=O)n(CC2CCCO2)c2nc(-c3ccc(C)cc3)nc(C(N)=O)c21 (stereo unspecified)
?,Cn1c(=O)[nH]c(=O)c2c1nc(N1CCN(C(=O)c3ccco3)CC1)n2CCCSc1ncccn1
-23.2%,CSc1nsc(SC)c1CO
-2.5%,O=C(Nc1nccs1)C1(c2ccc(Cl)cc2)CC1
-16.9%,O=C(CCNC(=O)c1ccc(Br)cc1)Nc1cccc(S(=O)(=O)N2CCCC2)c1
14.0%,CCOc1ccccc1OCCCC(=O)NNC(=O)c1ccc(F)cc1
-5.8%,O=C(NCCN1CCOCC1)C(=O)NCC1OCCN1S(=O)(=O)c1ccccc1 (stereo unspecified)
-2.0%,Cc1c(Cl)c([N+](=O)[O-])nn1CC(=O)NCc1cccnc1
